Screens from PubChem.
Cruzain Triton: blocks cruzain activity in presence of Triton detergent | P25779 | purified cruzain, Z-FR-AMC fluorescence, 0.01% Triton | Potency, µM, for the others: max response, negative = inhibition, actives largely listed as inhibitors | 200,000 compounds, 0.43% hits | AID 1478;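 note: plate controls were neutral wells for no effect and buffer without enzyme for full effect; nearly all actives have a fitted effect of over 40% in size; top concentration of the series not given in the record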
Target sequence (P25779 123-467 limits assumed): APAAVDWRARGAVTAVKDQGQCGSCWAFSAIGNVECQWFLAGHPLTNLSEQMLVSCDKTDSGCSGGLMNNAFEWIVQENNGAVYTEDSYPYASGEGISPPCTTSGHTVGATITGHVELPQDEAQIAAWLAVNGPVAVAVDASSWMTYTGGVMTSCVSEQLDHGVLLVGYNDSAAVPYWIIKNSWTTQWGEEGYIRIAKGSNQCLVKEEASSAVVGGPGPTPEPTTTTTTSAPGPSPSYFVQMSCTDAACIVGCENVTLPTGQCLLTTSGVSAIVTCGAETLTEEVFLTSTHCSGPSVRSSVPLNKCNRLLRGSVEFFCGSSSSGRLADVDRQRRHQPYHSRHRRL
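Cruzain (1.5 nM) preincubated 15 min at RT with compound in 100 mM sodium acetate pH 5.5, 5 mM DTT, 0.01% Triton X-100. Reaction started with 2 uM Z-FR-AMC; AMC fluorescence (ex 360/em 450 nm) change over 60 s gave rate.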
Cruzain noTriton: blocks cruzain activity in detergent-free assay; purified cruzain, Z-FR-AMC fluorescence, no detergent; P25779; Potency, µM, without a hit: max response, negative = inhibition, usual class: inhibitors; 200,000 compounds, 2.3% hits;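 note: plate controls were enzyme without inhibitor for no effect and buffer without enzyme for full effect; nearly all actives have a fitted effect of over 40% in size; top concentration of the series not given in the record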
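Detergent-free condition (0.00005% Triton X-100) in acetate buffer pH 5.5 with DTT. 1.5 nM enzyme and compound were pre-mixed 15 min, then 2 uM Z-FR-AMC substrate added; reaction progress from fluorescence change between first and third reads (60 s).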
NS1 inh: influenza NS1 inhibition; S. cerevisiae slowed by influenza A NS1, growth recovery by OD600; Potency, µM (highest dose often 46.1 µM), inactives show at the top dose activity, positive = more growth; 270,000 compounds, 0.4% hits; AID 2326; active means well fitted rising curve with a large enough effect; inconclusive means small, poorly fitted or top-dose-only effect; inactive means no such curve, though single readings can be large or run the other way; note: nearly all actives have a fitted effect of over 50% in size
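Compounds were scored for reversing the slow growth caused by influenza A NS1 in S. cerevisiae, measured by optical density at 600 nm. Assay medium contained 2% galactose at pH 6.0; NS1-free yeast of the same strain were the positive control.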
RE007 growth inh: less growth of the S. pombe RE007 Vpr strain; S. pombe RE007 Vpr strain, BacTiter-Glo ATP luminescence, 24 h; control for the full effect not named in the record; Potency, µM (highest dose often 92.2 µM), inactives show top-dose activity change, negative = less growth; 360,000 compounds, 0.21% hits; AID 651644; active = well fitted falling curve with a large enough effect; inconclusive = small, poorly fitted or top-dose-only effect; inactive = no such curve, though single readings can be large or run the other way;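 note: % is set by controls: 0 for no effect and ±100 for the full control effect; nearly all actives have a fitted effect of over 50% in size; the assay follows cell death caused by Vpr and the record does not say whether a fall means rescue or toxicity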
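Fission yeast strain RE007, carrying one chromosomally integrated HIV-1 vpr copy, was seeded at OD 0.01 in PMG+AL medium with 23 nL pinned compound. After 24 h at 30 °C and 99% humidity, viability was read by BacTiter-Glo luminescence.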
SARS PLpro yeast: SARS-CoV PLP inhibition in yeast. S. cerevisiae expressing SARS-CoV PLpro, growth rescue; control for the full effect not named in the record. Potency, µM (top dose mostly 32.9 µM), for inactives: top-dose activity, positive = growth rescue. 330,000 compounds, 0.19% hits. AID 485353; active means well fitted rising curve with a large enough effect; inconclusive means small, poorly fitted or top-dose-only effect; inactive means no such curve, though single readings can be large or run the other way; note: 0% is about no effect; nearly all actives have a fitted effect of over 55% in size; growth read by luminescence after 48 h
Marburg entry inh: inhibitors of Marburg virus binding or cell entry. 300,000 compounds, 1.8% hits. AID 540276. Marburg virus pseudotyped entry inhibition, cell reporter; control for the full effect not named in the record; about a third of the inactives were read at about 46 µM. Potency, µM (top dose mostly 37.8 µM), for inactives: top-dose activity change, negative = inhibition, usual class: inhibitors; active = well fitted inhibition curve with a large enough effect; inconclusive = small, poorly fitted or top-dose-only effect, or effect the other way; inactive = flat fitted curve, though single readings scatter; tested in HEK293 cells; about a fifth of its hits are not listed in these tables; note: % is set by controls: 0 for no effect and ±100 for the full control effect; luciferase read-out
2A StopGo: lowers the luciferase signal of an FMDV 2A StopGo reporter; Potency, µM (series often up to 57.9 µM), without a hit: at the top dose signal change, negative = less light; 410,000 compounds, 1.2% hits; human cells with a luciferase reporter of 2A StopGo recoding; control for the full effect not named in the record; AID 1159524; active = well fitted falling curve with a large enough effect; inconclusive = small, poorly fitted or top-dose-only effect; inactive = no such curve, though single readings can be large or run the other way; tested in HEK293T cells; note: % is set by controls: 0 for no effect and ±100 for the full control effect; nearly all actives have a fitted effect of over 45% in size; luciferase light after 4 h
LASV entry inh: Lassa virus entry inhibition; Lassa virus pseudotype entry inhibition, cell reporter; control for the full effect not named in the record; Potency, µM (series often up to 37.9 µM), for inactives: top-dose activity change, negative = inhibition, usual class: inhibitors; 300,000 compounds, 1.2% hits; AID 540256; active means well fitted inhibition curve with a large enough effect; inconclusive means small, poorly fitted or top-dose-only effect, or effect the other way; inactive means flat fitted curve, though single readings scatter; tested in HEK293 cells; note: % is set by controls: 0 for no effect and ±100 for the full control effect; nearly all actives have a fitted effect of over 50% in size; luciferase read-out
The depositor's hits bear a star; ? = inconclusive; . = not tested or not shown; & = joins results of further samples; [ ] = remark or other dose. Unless noted, calls come from the whole dose curve; as a rule, active = well fitted curve in the direction sought with a large enough effect; inconclusive = small, poorly fitted or top-dose-only effect, or another doubt; inactive = no such curve, though single readings can be large; an effect the other way counts as inactive or inconclusive. Potency is the fitted concentration of half-maximal effect.

SMILES	Cruzain Triton	Cruzain noTriton	NS1 inh	RE007 growth inh	SARS PLpro yeast	Marburg entry inh	2A StopGo	LASV entry inh
Cc1ccc(C(=O)CSc2nnc(-c3ccco3)o2)o1	-6.0%	-3%	1%	-3%	-3%	-1%	64%[activator]	?
CNCc1cc(Cl)cc(OC)c1OC(C)C	.	.	6%	11%	-2%	?	-15%	-15%[46.1 µM]
COCCC1CCCCN1C(=O)c1cc(COc2ccc(-n3cncn3)cc2)on1 (stereo not given)	.	.	-4%	24%	?	?	?	?
CCOc1ccccc1CNS(=O)(=O)c1ccc2c(c1)C(C)(C)C(=O)N2C	-0.9%	-2%	1%	-3%	-2%	.	28%&74%	10%[46.1 µM]
O=C(CCNC(=O)Cn1cnc2ccccc2c1=O)NCC1COc2ccccc2O1 (stereo not given)	9.8%	-1%	-3%	-24%	0%	20%	8%	0%
COc1ccc(C(=O)O)cc1S(=O)(=O)Nc1cccc(C)c1	0.8%	-6%	0%	-1%	4%	?	37%[activator]	1%
O=C(Cn1cnc2c(nnn2-c2cccc(Cl)c2)c1=O)NCc1ccccc1	.	.	9%	7%	2%	.	-24%	.
Cc1cccc(NC(=O)c2c([N+](=O)[O-])c(C(C)(C)C)nn2C)c1	-2.3%	8%	4%	6%	14%	?	2%	?
CN(C)CC(C)(C)CNC(=S)Nc1ccc(S(=O)(=O)N2CCOCC2)cc1	0.3%	6%	-10%	.	-20%	-13%	-8%	-2%
O=C(NC(=S)Nc1cccc(Cl)c1N1CCCCC1)c1ccc2c(c1)OCCO2	-1.1%	13µM*	6%	24%	-28%	?	0%	?
Cc1ccc(C(=O)NCC(c2cccs2)S(=O)(=O)c2cccs2)cc1C (stereo not given)	-2.4%	-5%	.	.	.	.	-25%	-16%[46.1 µM]
CN1CCc2nc(SCC(=O)OC(C)(C)C)c(C#N)cc2C1	1.1%	10%	5%	-3%	-1%	?	25%	2%
O=C(CSc1ccccc1C(=O)NCCCN1CCCC1=O)NCc1ccco1	5.7%	-7%	-3%	11%	1%	-2%	-24%	4%
COc1ccc(C(=O)NNC(=O)C(=O)NCc2ccccc2)cc1	.	.	1%	5%	0%	11%	1%	29%
COC(=O)Cn1c(O)c(N=NC(=O)CNC(=O)c2ccc3c(c2)OCCO3)c2ccccc21	.	.	4%	13%	-3%	.	-6%	.
COc1cccc(COCCN2CCN(S(=O)(=O)c3ccc(C)cc3)CCC2=O)c1	-1.4%	23%	-18%	-4%	7%	2%	-14%	?
O=C(Nc1ccccc1C(F)(F)F)c1cc(-c2ccc3c(c2)OCCO3)on1	-0.1%	0%	.	.	.	?	27%	6%[46.1 µM]
COc1cc(OC)nc(NC(=O)CN2CCN(c3ccc(F)cc3)CC2)n1	-2.9%	11%	-5%	-5%	3%	-3%	-5%	?
COc1ccc(S(=O)(=O)NCC(=O)NCc2cc(=O)n(C)c(=O)n2C)cc1F	.	.	2%	10%	13%	.	-5%	.
Cn1c(=O)c2sccc2n2c(CCCC(=O)N3CCN(c4ccccn4)CC3)nnc12	.	.	-11%	-5%	5%	.	-14%	.
Cc1ccc(NC(=O)NCCCN2CCOCC2)cc1	-1.8%	-19%	4%	-11%	-1%	22%	7%	15%
Cc1cc(O)c(-c2cc(C(=O)NCc3ccc4c(c3)OCO4)[nH]n2)cc1C	6.0%	?	8%	-1%	-4%	3%	7%	3%
O/N=C1\CCC2CN(C3CCCCC3)CC2C1 (stereo not given)	-0.8%	5%	5%	-2%	?	3%	-26%	-8%
Cc1cc(=O)c(C(=O)O)cn1-c1ccc(C(C)C)cc1	.	.	.	-12%	5%	4%[46.1 µM]	-13%	1%[46.1 µM]
COc1cc(C)c(/C=C(\C#N)C(=O)Nc2cccc(C)c2)cc1C(C)C	-6.8%	-3%	1%	0%	19%	?	-23%	0%
SMILES	Cruzain Triton	Cruzain noTriton	NS1 inh	RE007 growth inh	SARS PLpro yeast	Marburg entry inh	2A StopGo	LASV entry inh
CC1Cn2c(nnc2-c2cc3ccccc3cc2O)S1 (stereo not given)	1.7%	-1%	0%	7%	10%	3%&4%	.	26%
COc1ccc(/C([O-])=C(/C(=S)Nc2ccc(C)c(C)c2)n2c[n+](C)c3ccccc32)cc1OC	.	.	.	7%	-2%	-11%[46.1 µM]	-2%	1%
Cc1ccc(N2CCN(c3ccc(C)cc3)C2c2ccncc2)cc1	-7.3%	3%	-14%	15%	-1%	?	?	-8%
CCOC(=O)c1c(NC(=O)CSc2n[nH]c(-c3ccco3)n2)sc(C)c1C	-13%	-4%	-54%	-6%	-3%	-33%	3%	?
CN1C(=O)C(=Cc2cc([N+](=O)[O-])ccc2N2CCCCC2)C(=O)N(C)C1=O	.	.	.	2%	3%	?	-12%	18%
COc1cc(C)nc(NS(=O)(=O)c2ccccc2Cl)n1	.	.	-3%	2%	3%	-1%	77%[activator]	1%
O=C(O)c1ccc(Nc2ccc([N+](=O)[O-])c3nonc23)cc1	.	.	16%	-28%	0%	-5%[46.1 µM]	-17%	18%[46.1 µM]
CCc1nc2ccccc2n1CC(=O)N1CCN(S(=O)(=O)c2cccc(C(F)(F)F)c2)CC1	-1.6%	18%	-12%	28%[3.69 µM]	6%	-1%&0%	-28%	-8%
COCCN(C(=O)CNC(=O)c1ccco1)C(C(=O)NC1CCCC1)c1ccc(OC)cc1 (stereo not given)	.	.	5%	12%	13%	15%[46.1 µM]	-4%	.
CCN1CCN(S(=O)(=O)c2ccc(Cl)c(C(=O)N(C)CCOc3ccc(Cl)cc3)c2)CC1	.	.	.	-20%	1%	?	?	?
CC(=O)Nc1ccc(SCC(=O)N(CCC#N)c2ccc(C)cc2)cc1	2.9%	5%	-1%	-4%	7%	?	-1%	-11%
Cc1cccnc1NC(=O)c1nn(C)c2c1CS(=O)(=O)c1ccccc1-2	.	.	2%	18%	8%	.	-21%	.
CC(C)CNC(=O)c1nn(Cc2ccccc2)c(=O)c2ccccc12	.	.	-11%	-4%	-9%	-16%[46.1 µM]	12%	-24%[46.1 µM]
CSC1=NC2(CCCCC2)C2=C(CCCC2)N1	0.6%	2%	-7%	7%	2%	2%	.	11%
O=C(/C=C/c1cccnc1)c1ccc([N+](=O)[O-])cc1	.	.	-7%	2%	-20%	?	-5%	?
COc1cc2c(C(=O)N(C)c3cc(Cl)ccc3OC)cn(CC(C)C)c(=O)c2cc1OC	-3.3%	?	.	.	.	?	0%	-27%[46.1 µM]
O=C(COc1ccc(Br)cc1Cl)NC(=O)Nc1ccc2c(c1)OCCO2	.	.	.	-6%	1%	19%[46.1 µM]	29%	-4%[46.1 µM]
COc1ccc(C)cc1NC(=O)CSc1nc2ccccc2nc1N1CCCCC1	.	.	?	-2%	-5%	.	?	.
Cc1cc(Nc2cccc(Cl)c2)nc(NCc2ccccc2)n1	-9.6%	4%	-26%	5%	?	?	?	-15%
Oc1ccc(N2CCN(c3ncnc4sc5c(c34)CCC5)CC2)cc1	-2.8%	?	-6%	-6%	7%	?	?	-12%
C=CCN1C(=O)C2(OCCCO2)c2cc(Cl)ccc21	.	.	-5%	-8%	0%	.	-12%	.
CC(=O)C1=C(C)N(Cc2ccccc2)C(=O)N[C@H]1c1cccc(C(F)(F)F)c1	-0.7%&-7.8%	2%&1%	7%	27%	10%	12%[14.2 µM]	-4%	-15%
Cc1cc(C)n2nc(C(=O)OCC(=O)N(CCC#N)c3ccc(F)cc3)nc2n1	.	.	.	3%	7%	-1%	-5%	3%
CCCCCC(=O)NC(NC(=S)N1CCOCC1)C(Cl)(Cl)Cl (stereo not given)	-0.8%	6%	3%	-7%	?	-19%	6%	-13%
COc1ccc(C(CNC(=O)c2ccc(Cl)s2)N2CCOCC2)cc1 (stereo not given)	.	.	.	4%	-1%	-14%	54%[activator]	24%
O=C(CCNS(=O)(=O)c1ccc(Br)cc1)NCc1ccc2c(c1)OCO2	1.8%	-7%	2%	-3%	-12%	20%	-1%	-14%
O=C(COC(=O)c1ccccc1NS(=O)(=O)c1cccs1)NC1CCCCC1	-6.9%	9%	3%	14%	-20%	?	-6%	-5%
O=C(CCc1ccccc1)N1CCN(c2ccc(Cl)cc2)CC1	-3.8%	-5%	-87%	1%	.	-21%	.	?
CCN(CC)C(=S)SCC(=O)Nc1ncc2c(n1)CCCC2=O	.	.	1%	5%	-1%	-8%[46.1 µM]	0%	10%

Gathered by group, those above with a tert-butyl group.
SMILES	Cruzain Triton	Cruzain noTriton	NS1 inh	RE007 growth inh	SARS PLpro yeast	Marburg entry inh	2A StopGo	LASV entry inh
Cc1cccc(NC(=O)c2c([N+](=O)[O-])c(C(C)(C)C)nn2C)c1	-2.3%	8%	4%	6%	14%	?	2%	?
CN1CCc2nc(SCC(=O)OC(C)(C)C)c(C#N)cc2C1	1.1%	10%	5%	-3%	-1%	?	25%	2%

Record cards, from the list above:
O=C(/C=C/c1cccnc1)c1ccc([N+](=O)[O-])cc1 is entered as Cruzain Triton: .; Cruzain noTriton: .; NS1 inh: -7%; RE007 growth inh: 2%; SARS PLpro yeast: -20%; Marburg entry inh: ?; 2A StopGo: -5%; LASV entry inh: ?
O=C(O)c1ccc(Nc2ccc([N+](=O)[O-])c3nonc23)cc1 is entered as Cruzain Triton: .; Cruzain noTriton: .; NS1 inh: 16%; RE007 growth inh: -28%; SARS PLpro yeast: 0%; Marburg entry inh: -5%[46.1 µM]; 2A StopGo: -17%; LASV entry inh: 18%[46.1 µM]
CCc1nc2ccccc2n1CC(=O)N1CCN(S(=O)(=O)c2cccc(C(F)(F)F)c2)CC1 is entered as Cruzain Triton: -1.6%; Cruzain noTriton: 18%; NS1 inh: -12%; RE007 growth inh: 28%[3.69 µM]; SARS PLpro yeast: 6%; Marburg entry inh: -1%&0%; 2A StopGo: -28%; LASV entry inh: -8%
